Screening results from PubChem BioAssay.
HIV Env fusion: inhibitors of HIV-1 Env-driven cell-cell fusion, primary screen, HeLa-JRFL effector, CEM21 target cells, luciferase; actives 1.1% (n = 360,000); AID 651610, 2012; inhibition, % at 12.3 µM;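 active = mean replicate inhibition score of at least 50 and every replicate individually at or above 50; inconclusive = only one of the two criteria met; inactive = mean below 50 and not all replicates reaching 50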;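 also: 0% = plate neutral controls and 100% = maraviroc near 300 nM; one replicate is shown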
MT1-MMP act inh: blockers of MT1-MMP proenzyme processing, primary screen, HT1080 RFP-PRO-GFP cells, GFP/RFP fluorescence; Matrix metalloproteinase-14 (Homo sapiens), P50281; GFP/RFP ratio fluorescence, overnight; percent of plate control window, DMSO zero; GFP/RFP ratio change, % at 20 µM; actives 0.061% (n = 360,000);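 active = GFP/RFP ratio change of at least 30% with cell ATP level not reduced by more than half and red fluorescence within 50% of control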; also: strong numbers were not always called active
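system = RFP-PRO-GFP reporter HT1080 cells | dosing = 20 µM single dose, 1% DMSO | timing = overnight cell settling, then overnight compound exposure, 37 °C, 5% CO2 | read-out basis = GFP/RFP fluorescence ratio | controls = DMSO and RFP-L50D-GFP cell wells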
Rce1 inh: yeast Rce1p protease inhibitors, primary screen, biochemical, fluorescence, cell-free homogeneous; calls only; actives 0.27% (n = 290,000); CAAX prenyl protease 2 (Saccharomyces cerevisiae (strain ATCC 204508 / S288c)), Q03530; yeast membranes, quenched prenylated peptide cleavage fluorescence; AID 2563, 2010;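 active = fall in fluorescence gain of 50% or more versus controls, with final raw signal at or below 3038400; inconclusive = same 50% fall but final raw signal above 3038400; inactive = fall in fluorescence gain under 50%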;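 also: plate controls were neutral control wells for no effect and wells lacking membranes for full effect; tested at 10 µM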
Target sequence (Q03530 whole entry, looked up): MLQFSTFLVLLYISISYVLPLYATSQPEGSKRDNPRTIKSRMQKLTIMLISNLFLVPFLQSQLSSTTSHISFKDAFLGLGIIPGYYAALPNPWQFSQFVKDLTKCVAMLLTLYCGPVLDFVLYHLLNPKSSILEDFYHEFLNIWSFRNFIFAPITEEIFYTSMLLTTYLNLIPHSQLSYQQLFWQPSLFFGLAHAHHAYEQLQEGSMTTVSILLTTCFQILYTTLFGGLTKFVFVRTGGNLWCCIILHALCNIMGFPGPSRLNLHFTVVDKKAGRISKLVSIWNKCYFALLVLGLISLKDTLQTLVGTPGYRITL
PABP polyA inh: PABP poly(A) RNA binding inhibitors, primary screen, biochemical, fluorescence polarization, uHTS; actives 1% (n = 290,000); Polyadenylate-binding protein 1 (Homo sapiens), P11940; AID 2014, 2009; inhibition, % at 35 µM;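 active = 50% or more with normal probe brightness, or confirmed in later tests; inconclusive = above 50% with abnormal brightness, or retests that disagree; inactive = below 50% or failed in later tests; about a fifth of its hits are not listed in these tables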;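 also: calls also rest on retests at 20 µM and on dose response follow-up; controls were probe without protein and protein plus probe with vehicle; some compounds called inactive have numbers as strong as hits; many hits fall short of the cut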
Yeast UUG start: modulators of yeast start codon fidelity, primary screen, whole organism, S. cerevisiae, single point, plate reader. activity score, % at 18.7 µM. actives 0.13% (n = 350,000). S. cerevisiae UUG-firefly luciferase reporter, luminescence/redox ratio;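 active = replicate mean at a twofold rise or more, about +100% in these data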;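 also: firefly luciferase made from a UUG start codon reports start codon fidelity; reporter light over untreated wells divided by growth signal over untreated wells; some hits fall short of that in this replicate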
eIF4H FP inh: human eIF4H binding inhibitors, primary screen, translation initiation inhibitor project, biochemical, uHTS, fluorescence polarization; AID 2012, 2009; actives 0.94% (n = 290,000); inhibition, % at 35 µM; eIF4H fluorescence polarization binding assay; Eukaryotic translation initiation factor 4H (Homo sapiens), Q15056;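 active = 50% or more with normal probe brightness, or confirmed in later tests; inconclusive = above 50% with abnormal brightness, or retests that disagree; inactive = below 50% or failed in later tests; about a fifth of its hits are not listed in these tables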;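 also: calls also rest on retests at 20 µM and on dose response follow-up; 0% = protein and probe with vehicle and 100% = probe without protein; strong numbers were not always called active; many hits fall short of the cut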
CSC inhib: cancer stem cell viability inhibitors, primary screen, luminescence. inhibition, % at 7.5 µM. cancer stem cell-like cells viability. actives 1.1% (n = 300,000);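 active = mean at 75% or more and at least half the replicates too; inconclusive = mean and replicates disagree; tested in HMLE shEcad cells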;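 also: 0% = median of negative and 100% = median of positive control wells; the first replicate is given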
MT1-MMP act inh RFP: further read-out of MT1-MMP act inh, marked with its call; RFP signal change, %; measured here: RFP expression control read;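 0 = vehicle wells; hits needed this value within 50% of zero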
Active calls of the source: *; i = inactive; ? = inconclusive; . = not tested or not shown. This is a subset (hit frequency here may not be typical).

SMILES	HIV Env fusion	MT1-MMP act inh	MT1-MMP act inh RFP	Rce1 inh	PABP polyA inh	Yeast UUG start	eIF4H FP inh	CSC inhib
CC1(C(=O)NS(=O)(=O)c2ccccc2)CCN1C(=O)CC1CCCC1 (stereo unspecified)	32	2	5	.	.	2	.	.
Cc1ccc(C)c2[nH]c(=O)c(CN(Cc3ccco3)C(=O)Nc3ccccc3)cc12	.	-15	-9	i	11	.	-2	-6
COCCn1cnc2c1c(=O)n(Cc1ccccc1C#N)c(=O)n2Cc1ccccc1	10	0	2	i	8	0	-8	.
O=C(Nc1ccc(Nc2ccccc2)cc1)c1cc([N+](=O)[O-])ccc1Cl	-41	-2	-14	i	5	-17	-4	78*
Cc1ccc(-c2nnnn2C2C/C(=N\NC(N)=S)C3OCC2O3)cc1 (stereo unspecified)	2	-4	-7	i	-4	-11	2	-9
Cc1cccc(NC(=O)c2cccc(C(=O)Nc3cccc(C)n3)c2)n1	-3	-3	8	i	11	-9	-5	8
O=C1CCC(C(=O)N2CCCC(C(=O)c3ccc4ccccc4c3)C2)=NN1 (stereo unspecified)	-4	-2	1	i	-15	-6	-6	7
COc1cccc(OCCOc2ccc(/C=C3\C(=N)N4N=C(S(C)(=O)=O)SC4=NC3=O)cc2OC)c1	-12	4	-2	i	10	-5	7	0
O=c1[nH]c2ccccc2c(O)c1-c1ccccc1	.	5	3	.	6	-8	-7	-5
COc1ccc(S(=O)(=O)N(C)CC(=O)NCCC2=CCCCC2)cc1	19	-6	-3	i	-2	-7	2	-11
CC(C)NS(=O)(=O)c1ccc(Oc2ncc(C(F)(F)F)cc2Cl)cc1	6	0	-2	i	-1	-10	-5	-12
CC(NS(=O)(=O)c1ccc(Cl)c(Cl)c1)C(=O)OCC(=O)N1CCCCCC1 (stereo unspecified)	8	-3	1	.	.	-4	.	.
c1ccc(-c2csc3ncnc(NCCN4CCOCC4)c23)cc1	78*	-1	-11	i	1	.	0	59
CCCNC(=O)COC(=O)c1ccc(OCC(=O)Nc2ccccc2OC)c(OC)c1	-57	3	-6	i	-12	-18	-6	.
CC(=O)Nc1ccc(NC(=O)C2CCN(C(=O)c3ccc([N+](=O)[O-])cc3)CC2)cc1	-11	2	2	i	-12	.	-8	-4
Nc1nc2c(Cl)cc(Cl)cc2s1	-39	0	1	i	0	-9	-4	-5
O=C1OC(/C=C/c2ccccc2)=NC/1=C\c1cccnc1	16	3	11	i	-2	.	-2	-2
COc1cc2c(cc1NC(=O)C(C)OC(=O)c1ccc(S(=O)(=O)Nc3ccccc3Cl)cc1)oc1ccccc12 (stereo unspecified)	24	-2	-7	i	4	.	7	17
CC1Cc2cc(S(=O)(=O)CCC(=O)NCc3ccco3)ccc2N1C(=O)C1CC1 (stereo unspecified)	17	-1	5	i	9	11	0	36
CC1(Oc2ccccc2)CCN(Cc2csc3ccccc23)C1 (stereo unspecified)	-21	-2	3	.	.	7	.	.
Cc1cccc(Sc2nc(-c3ccccc3)ccc2C#N)c1	-4	-1	-1	i	-5	0	1	27
COc1cccc(C(C(=O)NC2CCCC2)N(C(=O)c2ccco2)c2ccc(C(C)=O)cc2)c1OC (stereo unspecified)	-4	-3	-2	i	-12	5	1	.
CC1CCc2sc(C(=O)N(C)CC(=O)Nc3ccc(N4CCOCC4)cc3)cc2C1 (stereo unspecified)	.	-2	0	i	2	15	-7	-7
Cc1nn(C)cc1C(N)=O	.	1	3	i	6	-11	-9	0
C[C@]12c3[nH]c4cc(-c5ccco5)ccc4c3CCN1C(=O)[C@@H](CC(=O)NCc1cccc(C(F)(F)F)c1)C[C@@H]2C(=O)N1CCCCC1	-12	-5	-11	.	.	0	.	.
Cc1cc(C)n(-c2nc3ccccc3c(=O)n2OCC(=O)OCc2ccccc2)n1	.	7	-2	i	-12	-16	1	.
Cc1ccc(NC(=O)CSCc2cc(=O)n3ccsc3n2)c(C)c1	-2	-3	8	i	-2	-17	0	0
Cc1ccc[n+](CC(=O)Nc2ccc(C)c(C)c2)c1	-7	-3	-2	i	2	-14	3	-2
O=S(=O)(NCCc1ccc(Cl)cc1)c1cccs1	-9	-1	2	i	2	-10	-4	13
CCOC(=O)C1CCN(C(=O)c2cc(S(=O)(=O)N(C)C)ccc2N2CCCC2)CC1	4	-4	0	i	3	-1	-5	.
O=C(Nc1ccc2c(c1)OCO2)c1cccc2c1C(=O)N(C1CCCCC1)C2	5	-2	-2	i	2	-10	4	-5
O=C(Cn1nc(-c2ccccc2)c2ccccc2c1=O)Nc1ccc2c(c1)nc1n2CCOC1	-3	2	0	i	-7	-22	0	-9
CCN(CC)S(=O)(=O)c1ccc(/C=C/C(=O)OCC(=O)c2c(N)n(C)c(=O)n(C)c2=O)cc1	7	-1	-7	i	-8	3	0	-9
COc1cc(-c2noc(C)c2C(=O)NCCc2ccccc2)cc(OC)c1OC	4	-2	0	.	.	14	.	-18
CN(C)S(=O)(=O)c1cccc(NC(=O)COc2ccc(S(=O)(=O)N3CCOCC3)cc2Cl)c1	-10	3	-8	.	.	0	.	-11
COc1ccccc1/C=N/OCc1ccc(C#N)cc1	2	-1	1	i	16	-2	2	3
Cc1ccc(CSCc2ccc(C(=O)NC3CCCC3)o2)cc1	5	-1	0	i	-9	0	5	7
COc1cc2ncnc(NCc3cc(F)ccc3F)c2cc1OC	20	-6	-6	i	5	-3	-7	45
COCCNC(=O)C1(C)CCN(C(=O)c2oc3ccccc3c2C)C1 (stereo unspecified)	0	-1	3	.	.	-4	.	.
Cc1ccc(N=Cc2ccc(N(C)C)cc2)cc1C	-15	-5	0	i	-3	.	4	.
CC1CCN(CCCNC(=O)c2cn(C)c3ccc(S(=O)(=O)N4CCCC4)cc3c2=O)CC1	-5	7	1	i	4	34	24	1
CC(=O)Nc1ccc(NS(=O)(=O)c2cccc3nonc23)cc1	-1	-6	0	.	-5	-23	1	0
C=CCNC(=O)c1cc2sccc2n1C	-7	0	3	i	5	.	-12	-17
Clc1ccc(OCc2noc(-c3ccsc3)n2)c(Cl)c1	-202	-2	-1	i	-4	.	-14	0
Cc1ccc(S(=O)(=O)N2CCOCC2)cc1NC(=O)COc1ccc(-c2nnco2)cc1	13	2	2	i	4	-7	-1	-8
O=C(NC1CC1)C1=C[C@H](c2ccccc2)C[C@H](OCc2ccc(CO)cc2)O1	4	2	-1	i	-12	-5	-5	4
COc1cc(C(=S)N2CCOCC2)ccc1OC(=O)c1cccc(C)c1	15	3	-7	i	-6	-13	2	-10
CN(Cc1nc2ccccc2[nH]1)Cc1nc(CC2CC2)no1	0	-1	-1	i	-2	.	-9	-11
O=C(NN=C1CCCCCC1)c1cc2ccccc2cc1O	.	1	3	i	6	-14	-3	-7
CCOC(=O)C1=C[C@@H](C2CCCCC2)N(S(=O)(=O)c2ccc([N+](=O)[O-])cc2)[C@H]1c1ccccc1	16	-4	-32	.	.	-9	.	.
CCCNS(=O)(=O)c1cccc(C(=O)NC2CCCc3ccccc32)c1 (stereo unspecified)	-1	-4	-2	i	-19	-4	-10	-9
CC(=O)N1CCC(C(=O)N2CCN(S(=O)(=O)c3ccc(F)cc3)CC2)CC1	.	1	-1	i	-2	7	-3	-3
O=C(OCc1ccccc1F)c1cnc(Cl)c(Cl)c1	11	-3	-1	i	6	-13	-3	-6
CCOC(=O)CSc1n[nH]c(=O)n1CCc1ccccc1	3	0	3	i	12	-16	-4	-3
COc1ccc(CC(=O)NNc2ncnc3c2cnn3Cc2ccccc2)cc1OC	2	3	2	i	-1	.	-4	-11
CCOc1ccc(NC(=O)Cn2ncc3ccccc32)cc1	?	2	3	i	7	-14	-4	-1
Cc1ccc(C)c(Nc2cc(C)nc(-c3ccccc3O)n2)c1	17	-13	-15	i	-8	1	1	73
Cc1ccc(OCCNC(=O)CNC(=O)c2ccccc2Cl)cc1	0	-2	0	.	.	0	.	.
Cc1cccc(CC(C)NC(=O)CCc2nnc(CCCCc3ccccc3)o2)n1 (stereo unspecified)	6	0	2	i	9	.	-2	-2
CC(C)c1ccc(NC(=O)Cn2nnc(C(=O)NCc3ccc4c(c3)OCO4)c2N)cc1	-6	1	-2	i	4	-9	2	-9

Single records, from the list above. Screens in order: HIV Env fusion, MT1-MMP act inh, MT1-MMP act inh RFP, Rce1 inh, PABP polyA inh, Yeast UUG start, eIF4H FP inh, CSC inhib
Shown for CN(Cc1nc2ccccc2[nH]1)Cc1nc(CC2CC2)no1 = 0, -1, -1, i, -2, ., -9, -11
Shown for CCOC(=O)CSc1n[nH]c(=O)n1CCc1ccccc1 = 3, 0, 3, i, 12, -16, -4, -3
Shown for Cc1ccc(OCCNC(=O)CNC(=O)c2ccccc2Cl)cc1 = 0, -2, 0, ., ., 0, ., .
Shown for CC(C)c1ccc(NC(=O)Cn2nnc(C(=O)NCc3ccc4c(c3)OCO4)c2N)cc1 = -6, 1, -2, i, 4, -9, 2, -9

More results follow.
SMILES	HIV Env fusion	MT1-MMP act inh	MT1-MMP act inh RFP	Rce1 inh	PABP polyA inh	Yeast UUG start	eIF4H FP inh	CSC inhib
CN(C)CCCN(C(=O)CCc1ccccc1)c1nc2ccc(F)cc2s1	-54	0	0	i	-15	.	-12	.
O=C(c1ccc([N+](=O)[O-])cc1)N1CCSC1c1ccc(Cl)cc1 (stereo unspecified)	13	-5	-3	i	-1	.	-2	3
CCc1nn(-c2ccccc2)c(=S)c2ccccc12	-13	1	5	i	1	.	1	-36
CCCOc1ccc(/C=N/n2nnnc2N)cc1OC	-245	2	-3	i	5	3	-11	-6
COCCSc1nnc(NC(=O)CS(=O)(=O)c2ccc(C)cc2)s1	4	2	3	i	-5	-18	-7	.
CCOC(=O)N1CCN(Cc2cccs2)CC1	-24	5	4	i	16	-19	-9	-13
COc1ccc(CN(C)C(=O)c2ccccc2OCc2c(C)noc2C)c(OC)c1	.	1	1	.	.	2	.	1
CCC(Sc1nc2cc(OC)c(OC)cc2c(=O)n1Cc1ccc(OC)cc1)C(=O)NCCOC (stereo unspecified)	-26	-2	0	i	5	.	8	-9
CCN(c1c(C)n(C)n(-c2ccccc2)c1=O)S(C)(=O)=O	.	-1	0	i	1	-7	7	-8
NS(=O)(=O)c1ccc(N/N=C2/CCCc3ccccc32)c([N+](=O)[O-])c1	-9	10	3	i	14	.	-1	1
CC(NC(=O)COC(=O)COc1ccc(Cl)cc1)c1ccccc1 (stereo unspecified)	-2	-2	2	.	.	-9	.	.
CCOc1cccc(C(=O)Nc2ccc(N(CC)CC)cc2)c1	-89	4	-5	i	-9	-21	4	20
COc1ccc(O)c(-c2cc(-c3cccc(Br)c3)n[nH]2)c1	.	3	0	i	-1	.	5	-18
COc1ccc(-c2nnc(SC(C)C(=O)Nc3c(C)n(C)n(-c4ccccc4)c3=O)o2)cc1 (stereo unspecified)	.	3	6	i	-5	5	3	.
CCOC(=O)c1cccc(NC(=O)C2CCN(S(=O)(=O)c3cccs3)CC2)c1	.	-3	-9	.	-6	7	-6	.
CCC(=O)c1ccccc1OCCN1C(=O)NC(C)(C)C1=O	.	1	2	i	-5	-12	-2	-1
O=C(CN1C(=O)CC(c2ccco2)Sc2ccccc21)NC1CCCCC1 (stereo unspecified)	1	-1	-2	i	13	-16	10	-12
